# UUG fidelity: alters start codon recognition fidelity in yeast; S. cerevisiae UUG-firefly luciferase reporter, luminescence/redox ratio; activity score, % at 18.7 µM; 350,000 tested, 0.13% active; AID 602363;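 active = replicate mean at a twofold rise or more, about +100% in these data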;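 also: firefly luciferase made from a UUG start codon reports start codon fidelity; reporter light over untreated wells divided by growth signal over untreated wells; some hits fall short of that in this replicate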
# MT1-MMP act inh: blocks activation of human MT1-MMP; P50281; HT1080 RFP-PRO-GFP cells, GFP/RFP ratio fluorescence, overnight; percent of plate control window, DMSO zero; GFP/RFP ratio change, % at 20 µM; 360,000 tested, 0.061% active; AID 651647;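 active = GFP/RFP ratio change of at least 30% with cell ATP level not reduced by more than half and red fluorescence within 50% of control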; also: strong numbers were not always called active
#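 system = RFP-PRO-GFP reporter HT1080 cells | dosing = 20 µM single dose, 1% DMSO | timing = overnight cell settling, then overnight compound exposure, 37 °C, 5% CO2 | read-out basis = GFP/RFP fluorescence ratio | controls = DMSO and RFP-L50D-GFP cell wells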
# eIF4H FP inh: inhibitors of RNA binding by human eIF4H | eIF4H fluorescence polarization binding assay | inhibition, % at 35 µM | 290,000 tested, 0.94% active;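 active = 50% or more with normal probe brightness, or confirmed in later tests; about a fifth of its hits are not listed in these tables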;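 also: calls also rest on retests at 20 µM and on dose response follow-up; 0% = protein and probe with vehicle and 100% = probe without protein; strong numbers were not always called active; many hits fall short of the cut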
# CSC inhib: cancer stem cell inhibition; cancer stem cell-like cells viability, luminescence; inhibition, % at 7.5 µM; 300,000 tested, 1.1% active; AID 2717;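 active = mean at 75% or more and at least half the replicates too; tested in HMLE shEcad cells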;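 also: 0% = median of negative and 100% = median of positive control wells; the first replicate is given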
# HIV Env fusion: blocks HIV Env-driven cell-cell fusion; HeLa-JRFL Env/CEM21 cell fusion, luciferase; 360,000 tested, 1.1% active; inhibition, % at 12.3 µM; AID 651610;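 active = mean replicate inhibition score of at least 50 and every replicate individually at or above 50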;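 also: 0% = plate neutral controls and 100% = maraviroc near 300 nM; one replicate is shown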
# Rce1 inh: blocks yeast Ras-converting enzyme | Q03530 | yeast membranes, quenched prenylated peptide cleavage fluorescence | calls only | 290,000 tested, 0.27% active;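 active = fall in fluorescence gain of 50% or more versus controls, with final raw signal at or below 3038400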;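 also: plate controls were neutral control wells for no effect and wells lacking membranes for full effect; tested at 10 µM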
# Target sequence (Q03530 whole entry, looked up): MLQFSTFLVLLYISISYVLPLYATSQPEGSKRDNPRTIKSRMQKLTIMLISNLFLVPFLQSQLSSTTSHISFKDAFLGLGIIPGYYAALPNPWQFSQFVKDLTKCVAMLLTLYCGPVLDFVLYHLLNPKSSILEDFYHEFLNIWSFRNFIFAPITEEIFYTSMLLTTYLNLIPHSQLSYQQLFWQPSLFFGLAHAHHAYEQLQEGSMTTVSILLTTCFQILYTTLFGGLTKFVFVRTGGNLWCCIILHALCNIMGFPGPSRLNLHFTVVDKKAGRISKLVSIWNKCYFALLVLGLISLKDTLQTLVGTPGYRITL
# PABP polyA inh: PABP-poly(A) binding inhibition; P11940; inhibition, % at 35 µM; 290,000 tested, 1% active; PABP-poly(A) RNA binding, fluorescence polarization;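 active = 50% or more with normal probe brightness, or confirmed in later tests; about a fifth of its hits are not listed in these tables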;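 also: calls also rest on retests at 20 µM and on dose response follow-up; controls were probe without protein and protein plus probe with vehicle; some compounds called inactive have numbers as strong as hits; many hits fall short of the cut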
# eIF4H FP inh retest: recorded beside eIF4H FP inh, whose call it bears; inhibition, %; compound at 20 µM; confirmation average;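 mean of two retest wells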
# PABP polyA inh retest: second read-out of PABP polyA inh, no call of its own (marks repeat the call); inhibition, %; compound at 20 µM; confirmation repeats;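 mean of two retest wells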
# MT1-MMP act inh RFP: further read-out of MT1-MMP act inh, marked with its call; RFP signal change, %; measured here: RFP expression control read;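 0 = vehicle wells; hits needed this value within 50% of zero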
# The depositor's hits bear a star; i = inactive; . = not tested or not shown; & = joins results of further samples; [ ] = remark or other dose.
SMILES,UUG fidelity,MT1-MMP act inh,MT1-MMP act inh RFP,eIF4H FP inh,CSC inhib,HIV Env fusion,Rce1 inh,PABP polyA inh,others
O=C(C(=O)N1CCN(c2cccc(Cl)c2)CC1)c1c[nH]c2ccccc12,-13,-3,3,-5,14,21,i,7,
COc1ccc(-c2cn(CCC(=O)O)c(-c3ccc(Cl)nc3)n2)cc1,-2,1,7,.,-8,1,.,.,
COc1ccc(CCNC(=O)C(=O)NCC2OCCN2S(=O)(=O)c2ccc(OC)c(C)c2)cc1 (stereo unspecified),23,2,-8,0,1,.,i,-12,
CCOC(=O)c1nn(-c2cccc(OC)c2)c(-c2ccccc2)c1C(=O)c1ccccc1,4,2,4,2,4,.,i,0,
CCOC(=O)C1=C(c2ccccc2)NC(N)=NC1c1ccc(OCc2ccc(C(=O)OC)cc2)cc1 (stereo unspecified),.,-17,-17,-14,-5,-54,i,-42,
O=C(/C=C/Sc1ccccc1)c1ccccc1,1,-17,-5,1,49,.,i,-2,
O=S(=O)(c1ccc2nc(COc3ccc(Cl)cc3Cl)[nH]c2c1)N1CCOCC1,1,35*,-12*,-11,10,.,i,-2,
COc1cccc(-c2onc3ccc(C(=O)/C=C/N(C)C)cc23)c1,-16,-8,-5,-20,15,24,i,-10,
Cn1c(=NC(=O)c2ccco2)sc2ccccc21,.,4,1,2,-9,-72,i,-2,
Cc1cc(C)c(-n2c(SCC(=O)N3CCOCC3)n[nH]c2=O)c(C)c1,-8,1,3,7,17,5,i,0,
CCCNC(=O)C1Cc2cc(S(=O)(=O)N3CCCC3)ccc2N1C(C)=O (stereo unspecified),-17,-2,6,-2,-13,-7,i,5,
COc1ccc(CCC(C)NC(=O)CCc2ccccc2)c(OC)c1 (stereo unspecified),-16,0,-2,-11,-4,3,i,-2,
CN1CCN(C(=O)CCn2c(=S)[nH]c3ccccc3c2=O)CC1,3,-1,6,.,.,15,.,.,
CCOc1ccc(S(=O)(=O)Nc2cccc(C(=O)NCC(c3ccccc3)N(C)C)c2)cc1 (stereo unspecified),-6,0,-3,.,16,-43,i,.,
O=C(NCC(=O)N1CCN(Cc2c(F)cccc2Cl)CC1)c1cccc(Cl)c1,-11,4,1,.,.,-26,.,.,
C#CCCOC(=O)N1C2=NC(C(=O)OC)=C(C(=O)OC)[C@@H]3N(CC=C)c4ccccc4[C@]23C[C@H]1C(=O)OC,-2,-5,0,5,18,-52,i,6,
COc1cccc2cc(C(=O)CC3(O)C(=O)N(Cc4ccccc4)c4ccccc43)c(=O)oc12 (stereo unspecified),-14,-5,-1,-1,-14,-65,i,0,
O=c1[nH]c2ccccc2[nH]c1=O,-5,7,10,-6,-13,2,i,7,
NNC(=O)c1nc[nH]c1C(=O)Nc1ccccc1[N+](=O)[O-],.,4,3,55*,4,-17,i,66*,
O=C(Nc1cccc(Cl)c1Cl)C1CC(=O)N(c2ccc(Br)cc2)C1 (stereo unspecified),-7,0,-17,-7,-6,18,i,-2,
Cc1nnc(NC(=O)CCN2C(=O)/C(=C\c3ccccc3)SC2=S)s1,-9,0,0,2,3,7,i,1,
O=C(CNS(=O)(=O)c1ccccc1)N1CCN(c2ccccc2)CC1,-13,-5,2,8,-4,.,i,9,
O=C(O)CCCCCCCCc1cn(Cc2ccc(C(=O)c3ccccc3)cc2)nn1,-15,14,-6,-6,61,-86,i,8,
O=[N+]([O-])c1cccnc1N1CCC(c2cc(-c3ccc(Cl)cc3Cl)n[nH]2)CC1,-9,5,-10,-6,106*,-7,i,2,
CCOC(=O)c1sc(NC(=O)CCc2ccccc2)nc1C,1,-1,-4,0,26,-19,.,1,

# Quoted at random: three compounds from above.
SMILES,UUG fidelity,MT1-MMP act inh,MT1-MMP act inh RFP,eIF4H FP inh,CSC inhib,HIV Env fusion,Rce1 inh,PABP polyA inh,others
O=C(O)CCCCCCCCc1cn(Cc2ccc(C(=O)c3ccccc3)cc2)nn1,-15,14,-6,-6,61,-86,i,8,
COc1ccc(-c2cn(CCC(=O)O)c(-c3ccc(Cl)nc3)n2)cc1,-2,1,7,.,-8,1,.,.,
C#CCCOC(=O)N1C2=NC(C(=O)OC)=C(C(=O)OC)[C@@H]3N(CC=C)c4ccccc4[C@]23C[C@H]1C(=O)OC,-2,-5,0,5,18,-52,i,6,

# The listing continues.
SMILES,UUG fidelity,MT1-MMP act inh,MT1-MMP act inh RFP,eIF4H FP inh,CSC inhib,HIV Env fusion,Rce1 inh,PABP polyA inh,others
O=c1c(-c2ccccc2)c(O)nc(SCCN2CCOCC2)n1-c1ccccc1,.,-3,3,-1,-15,-22,i,3,
COC(=O)c1sc(NC(=O)COc2ccccc2C)nc1C,.,5,4,11,11,-7,i,-3,
N#Cc1c2n(c(=O)[nH]c1=O)CCCCC2,-8,4,6,-3,-6,.,i,7,
O=S(=O)(c1cccc(C(F)(F)F)c1)N1CCN(c2nnnn2-c2ccccc2)CC1,-13,1,1,7,.,-104,i,-5,
Cc1cc(N2CCN(C(=O)Nc3ccccc3C#N)CC2)c2ccccc2n1,-3,-2,5,3,.,-6,i,23,
Cc1ccn2cc(-c3cccc(S(=O)(=O)N4CC(C)OC(C)C4)c3)nc2c1 (stereo unspecified),-12,5,-3,-3,-16,-8,i,9,
O=C(COC(=O)c1ccc(S(=O)(=O)N2CCCC2)cc1)Nc1ccccc1Cl,-12,3,0,.,.,16,.,.,
Cc1nc2ccc(S(=O)(=O)NCC(=O)N3CCc4ccccc43)cc2s1,.,0,6,-2,-10,.,i,4,
CCOc1ccc(N(C(=O)c2snc(C(N)=O)c2N)C(C(=O)NC2CCCC2)C(C)C)cc1 (stereo unspecified),-4,-6,-4,12,.,8,i,-1,
C#CCN1[C@@H]2CCN(C2)c2cc(Br)ccc2S1(=O)=O,-15,2,0,.,.,15,.,.,
COCCn1c(=S)[nH]c2ccc(N(C)C)cc2c1=O,5,3,3,11,-16,-206,i,1,
O=C1CCc2cc(S(=O)(=O)Nc3ccccc3F)ccc2N1,-17,-6,0,.,-6,.,.,.,
Cc1ccccc1OCC(=O)N1CCc2ccccc2C1,-5,0,-1,1,-7,-12,i,2,
COC(=O)c1sc(-c2ccccc2)cc1NC(=O)c1ccc(F)cc1,.,4,0,-7,18,.,i,10,
CCc1nc2c(OCC(=O)C(C)(C)C)cccn2c1N(C)C(=O)c1cccs1,-9,-1,0,.,.,32,.,.,
CCOC(=O)c1c(C)c(C(=O)NC2CCCCC2)c(C)n1CC,.,8,3,-1,.,-7,i,6,
C=CCOc1ccc(C(=O)NC2CCCCC2)cc1,-18,-4,-1,-4,1,-78,i,-3,
CC(NC(=O)c1ccc([N+](=O)[O-])o1)C12CC3CC(CC(C3)C1)C2 (stereo unspecified),17,-4,-9,5,97*,-19,i,3,
COc1ccc(-c2c(C)sc(NC(=O)c3ccnn3C)c2C#N)cc1,.,-9,-21,6,11,.,i,-6,
Cc1cc(C)n2nc(SC(C)C(=O)NCc3ccco3)nc2n1 (stereo unspecified),-14,-2,2,-12,.,-52,i,-2,
Cc1nnc(NC(=O)C(C)Sc2nnc(CCNC(=O)c3ccccc3F)n2C)s1 (stereo unspecified),-12,0,-3,-2,-7,-5,i,-6,
CCOc1ccccc1CN1CCN(Cc2csc(C(C)=O)c2)CC1CCO (stereo unspecified),.,0,0,-2,-2,10,i,0,
COc1ccc(F)cc1C(=O)C1CCCN(Cc2ccc3c(c2)OCCO3)C1 (stereo unspecified),-10,2,9,-7,11,-11,i,1,
CCOC(=O)Cn1c2ccccc2c2nc(C)sc21,.,3,4,1,0,-7,i,-1,
CC(=O)Nc1cccc(OCc2cnc(Cl)s2)c1,-9,0,3,-3,-6,-10,i,-19,

# Three successive entries out of the list so far:
SMILES,UUG fidelity,MT1-MMP act inh,MT1-MMP act inh RFP,eIF4H FP inh,CSC inhib,HIV Env fusion,Rce1 inh,PABP polyA inh,others
O=c1c(-c2ccccc2)c(O)nc(SCCN2CCOCC2)n1-c1ccccc1,.,-3,3,-1,-15,-22,i,3,
COC(=O)c1sc(NC(=O)COc2ccccc2C)nc1C,.,5,4,11,11,-7,i,-3,
N#Cc1c2n(c(=O)[nH]c1=O)CCCCC2,-8,4,6,-3,-6,.,i,7,

# New compounds follow.
SMILES,UUG fidelity,MT1-MMP act inh,MT1-MMP act inh RFP,eIF4H FP inh,CSC inhib,HIV Env fusion,Rce1 inh,PABP polyA inh,others
O=C(NCc1n[nH]c(=S)n1-c1ccccc1)c1ccco1,-21,1,0,100,-11,-34,i,13,eIF4H FP inh retest=-3;PABP polyA inh retest=2
Cc1cc(=O)oc(C)c1C(=O)Nc1cnc2ccccc2c1,-2,-49,2,79*,-5,.,i,104*,
Cc1ncsc1C(=O)N1N=C2/C(=C/c3ccccc3)CCCC2C1c1ccccc1 (stereo unspecified),-20,-35,-21,-8,36,22,i,-17,
CCOc1ccc(NC(=O)NCCCCc2ccccc2)cc1,-17,0,-1,-1,15,7,i,-6,
CC1=C(C(=O)OCc2ccccc2)C(c2ccc([N+](=O)[O-])cc2)NC(=O)N1CCCCCC(=O)O (stereo unspecified),-3,0,-4,2,3,24,i,-2,
CCCCCn1c(SCc2ccncc2)nc2cc(C(=O)NCc3ccco3)ccc2c1=O,.,-1,-9,-2,21,.,i,-10,
O=C(/C=C/c1ccc([N+](=O)[O-])cc1)c1cccnc1,-4,3,4,-1,2,-13,i,-2,
CN(C/C(O)=C(\C#N)c1ccccc1)C1CCCCC1,-14,3,3,4,8,.,i,6,
O=C1NC(=O)C2(COC(c3ccccc3Cl)OC2)S1 (stereo unspecified),.,1,0,-2,-12,14,i,-10,
COc1ccc2cc3cc(C(=O)NCc4ccco4)oc3nc2c1,-9,6,-4,40,66,-26,i,4,
CN1CCN(C(=O)C2=C[C@@H](C3CCCCC3)C[C@@H](OCCCCO)O2)CC1,-15&-4,2,3,0,-4,3[16.7 µM],i,-7,
C/C(N)=C(/C#N)C(=O)CSc1nc2ccccc2c(=O)n1-c1ccc(C)cc1,.,.,.,-5,6,.,i,-6,
CCN(CC(=O)NCc1ccc(F)cc1)S(=O)(=O)c1ccc(Cl)s1,-7,-1,-2,.,-6,.,.,.,
CC(C)c1nc(SCC(=O)Nc2cccc(C(=O)O)c2)c2c3c(sc2n1)CCCC3,-19,2,1,19,-8,14,i,34,
CC(=O)Nc1ccc(S(=O)(=O)N2CCC(NC(=O)C(Cc3ccccc3F)NC(C)=O)CC2)cc1 (stereo unspecified),10,5,8,-4,.,-3,i,15,
COc1cc2nc(CN(C)Cc3ccc(OC)c(OC)c3OC)[nH]c(=O)c2cc1OC,.,-1,-6,-1,-8,10,i,7,
O=C(Nc1ccc(F)cc1)C1CCCN1S(=O)(=O)c1ccc(Br)cc1 (stereo unspecified),-10,3,-2,-8,-17,81*,i,-3,
CCC1CCCCN1S(=O)(=O)Cc1ccccc1Cl (stereo unspecified),.,-2,1,-1,-4,13,i,13,
Nc1ccc(Br)cc1-c1nc2ccccc2[nH]c1=O,.,-4,0,100,.,10,i,0,eIF4H FP inh retest=-12;PABP polyA inh retest=3
C[C@H](CO)N1C[C@H](C)[C@@H](CN(C)Cc2ccccn2)Oc2ncc(Br)cc2C1=O,-21&-16&-12,0,5,.,.,-13,.,.,
Cc1ccc(C)c(N(CC(=O)N2CCCC2)S(C)(=O)=O)c1,-13,-3,0,-5,-10,-6,i,7,
CC(=O)Nc1cc(-c2ccccc2)ccc1O,-18,1,4,3,2,-28,i,20,
COC(=O)c1ccc(S(=O)(=O)N2CCc3ccccc32)cc1,-30,1,-8,-2,44,-11,i,-1,
O=C(CN1CCN(S(=O)(=O)/C=C/c2ccccc2)CC1)NC(=O)NCc1ccco1,-5,0,-1,.,-9,.,i,.,
COc1cc2c(cc1C1C(C#N)=C(N)OC3=C1C(=O)CC(C)(C)C3)OCO2 (stereo unspecified),9,4,-5,-3,-4,-125,i,-2,

# Source: PubChem
